Mtb H37Rv = Mycobacterium tuberculosis H37Rv growth inhibition, cell based, confirmatory dose response (AID 1949); most inactive calls were filed without a number and no value below 0 was filed; inhibition, % at 10 µg/mL; hits with a dose series show IC50 in µg/mL; actives 1.6% (n = 100,000);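 active = confirmed in a dose series; inconclusive = about 50% or more but not retested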;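 also: bacteria grown 7 days with compound before Alamar blue readout; 0% = untreated bacteria and 100% = reference antibiotic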
* marks the source's active call; other numbers are inactive results; i = inactive; ? = inconclusive.

The first 2 compounds (preview)
Structure,Mtb H37Rv
O=C(c1ccco1)N1CCN(C(=S)Nc2ccccc2C(F)(F)F)CC1,2%
c1coc(-c2nc3c([nH]2)CCc2nonc2-3)c1,0%

Results, from the start:
Structure,Mtb H37Rv
O=C(c1ccco1)N1CCN(C(=S)Nc2ccccc2C(F)(F)F)CC1,2%
c1coc(-c2nc3c([nH]2)CCc2nonc2-3)c1,0%
O=S(=O)(c1ccccc1)N1CCN(c2ccnc3cc(Cl)ccc23)CC1,11%
O=C(Nc1cccnc1)c1ccc(Oc2ccccc2)cc1,i
CCc1ccc(-c2csc(NC(=O)c3ccncc3)n2)cc1,i
O=C(CSCc1ccccc1)Nc1cc(Cl)ccc1Oc1ccccc1,2%
O=C(NC(NC(=O)c1ccccc1)c1cccc(Oc2ccccc2)c1)c1ccccc1,i
O=C(CCS(=O)(=O)Cc1ccccc1)Nc1cc(C(F)(F)F)ccc1Cl,4%
O=C(NC(=S)N1CCN(C2CCCCC2)CC1)c1ccccc1,?
Cc1ccc(NC(=O)COc2ccc(C)c(C)c2)c(Br)c1,i

Going on with the list:
Structure,Mtb H37Rv
O=C(NCc1ccccn1)c1cc(-c2ccccc2)on1,i
CCOC(=O)C12C(=O)Oc3ccc(Br)cc3C1C2(C)C(=O)c1ccc(Cl)cc1 (stereo unspecified),i
CC1CCCN(S(=O)(=O)Cc2ccccc2)C1 (stereo unspecified),15%
Cc1cc([N+](=O)[O-])ccc1NC(=O)c1cccnc1,i
O=c1c2cc(Br)ccc2oc2nc3n(c(=O)c12)CCCS3,?
O=c1c2cc(Br)ccc2nc(/C=C/c2ccccc2O)n1-c1ccccc1,i
COC(=O)C(C)Oc1ccc2c(C)c(C)c(=O)oc2c1 (stereo unspecified),42%
CC1CCN(C(=O)CN(c2ccc(I)cc2)S(=O)(=O)c2ccccc2)CC1,i
CC(=O)c1ccc(N2CCN(C(=S)Nc3ccc(S(N)(=O)=O)cc3)CC2)cc1,i
FC(F)(F)c1ccccc1CN1CCC(N2CCCC2)CC1,0%

Given with each value named: entries from further up.
> O=c1c2cc(Br)ccc2oc2nc3n(c(=O)c12)CCCS3
- Mtb H37Rv = ?
> O=c1c2cc(Br)ccc2nc(/C=C/c2ccccc2O)n1-c1ccccc1
- Mtb H37Rv = i
> COC(=O)C(C)Oc1ccc2c(C)c(C)c(=O)oc2c1 (stereo unspecified)
- Mtb H37Rv = 42%
> CC1CCN(C(=O)CN(c2ccc(I)cc2)S(=O)(=O)c2ccccc2)CC1
- Mtb H37Rv = i

Returning to the listing, starting two compounds before the break.
Structure,Mtb H37Rv
CC(=O)c1ccc(N2CCN(C(=S)Nc3ccc(S(N)(=O)=O)cc3)CC2)cc1,i
FC(F)(F)c1ccccc1CN1CCC(N2CCCC2)CC1,0%
CC1CC(OCC(O)CN2CCOCC2)CC(C)(C)C1 (stereo unspecified),1%
COc1ccc2nc(NC(=O)c3cc(Br)c(C)c(C)c3C)sc2c1,i
O=C(NCCC12CC3CC(CC(C3)C1)C2)c1ccc(Br)cc1,0.28µg/mL*
S=c1[nH]nc(-c2ccc(Br)cc2)o1,i
CCCCNCCOCCOc1ccc(Cl)cc1C(C)(C)C,4.3µg/mL*
Cc1cc(OCC(=O)O)ccc1Cl,i
Cc1ccc2cccc(OCc3nnc(SCC(=O)c4ccccc4)n3C)c2n1,3%
O=C(O)CCc1ccc(S(=O)(=O)NC2CCCCC2)cc1,i
O=C(CSc1ccc(Br)cc1)N1CCCCC1,i
N#Cc1nc(-c2ccc(Cl)cc2)oc1NC1CC1,i

Compound activity deposited in PubChem by Southern Research Institute.

Some of the compounds tested; count on the stated rates, not on these rows.
